Screening results as filed in PubChem BioAssay.
RN4220 kill: growth inhibition of S. aureus RN4220, primary screen, OD600; AID 1259311, 2017; 16 h; inhibition, % (concentration not given with the values); actives 0.33% (n = 330,000);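 active = z-score of -3 or lower and OD600 up to 0.18 on both plates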;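 note: plate controls were untreated cells for no effect and reference antibiotic for full effect; stock transfer was 100 nL into about 80 µL; one replicate is shown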
Mtb hypoxia inh: PubChem AID 1159583; M. tuberculosis hypoxia-regulated fluorescent reporter, fluorescence; fluorescence inhibition, % (no concentration beside the values); actives 0.1% (n = 300,000);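 active = 35 to 45% if threefold the growth effect, above 45% if 1.5-fold the growth effect; inactive = the rest, general growth blockers included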;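 note: wells of about 50 µL received 100 nL stock; 0% = vehicle wells and 100% = reference inhibitor wells; whole bacteria with a GFP reporter of the hypoxia response; strong numbers were not always called active; many hits fall short of the cut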
Autofluor counter: flagged as autofluorescent in microsphere protease counterscreen. compound autofluorescence counterscreen, microsphere flow cytometry; hits give high values. AID 624483. actives 3.1% (n = 360,000). fluorescence intensity (concentration not given with the values);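 active = at least 3 SD above the mean of all compounds, about 16000 in these data; inconclusive = too few beads counted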;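 note: 100 nL of 1 mM stock went into each well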
Sa ugtP lethal: growth inhibition of ugtP-null S. aureus, primary screen, RN4220 ugtP deletion, OD600; growth inhibition, % (concentration not given with the values); actives 0.54% (n = 330,000); 16 h; some inactives read as strong as hits;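 active = z-score under -3 and OD600 up to 0.15 on both plates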;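 note: plate controls were untreated wells for no effect and antibiotic for full effect; wells of about 80 µL received 100 nL stock; the first replicate is given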
BJeLR lethal: MLPCN primary cell-based screen for lethality selective to Ras in HRASV12 cells; BJeLR (HRASV12) viability, CellTiter-Glo ATP luminescence, 48 h; reference of the scale not given here; actives 0.17% (n = 300,000); inhibition, % (test concentration not listed);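 active = replicate mean above 50%; inconclusive = above 50% but judged a plate artefact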;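 note: 50 nL library stock added to about 25 µL; numbers are from one replicate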
PrP UTR inh: inhibition of PrP 5' UTR reporter expression | cell-based PrP 5' UTR mRNA reporter, plate reader | inhibition, % (no concentration beside the values) | actives 0.35% (n = 340,000);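 active = every replicate at 50% or more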;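 note: 0 = median of the neutral control wells; tested in H4 reporter cells; numbers are from one replicate; inactives centre near -14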
Mtb hypoxia inh growth: also measured in Mtb hypoxia inh; calls as there; growth inhibition, %; measured here: M. tuberculosis growth (absorbance);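 0% = vehicle and 100% = reference antibiotic; read after six days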
* = called active by the depositor; u = inconclusive; x = not tested or not shown. Compounds were not picked by outcome, and some 4% of all compounds hit somewhere here.

SMILES | RN4220 kill | Mtb hypoxia inh | Mtb hypoxia inh growth | Autofluor counter | Sa ugtP lethal | BJeLR lethal | PrP UTR inh
Cc1c(-c2ccnc3cc(C(=O)O)nn23)cnn1C | 3.7 | 10.9 | 4.6 | 3595 | 1.9 | 0.6 | -9.8
CCn1c(=O)c(CCC(=O)N2CCOCC2)c(C)c2c(C)nn(-c3ccccc3)c21 | 3.8 | 15.8 | 8.0 | 5511 | 8.2 | -7.4 | -12.7
Nc1c2c(nc3c1CCCC3)CCCC2 (tested in a mixture with another compound) | 2.7 | 9.6 | 3.5 | x | 16.9 | 1.2 | -6.1
CC1CCCCN1C(=O)c1cc(-c2ccc(Cl)c(Cl)c2)on1 (stereo unspecified) | 12.7 | -5.6 | 8.2 | 22609* | 11.2 | -12.4 | -102.4
O=C(Cc1c(O)c2ccccc2[nH]c1=O)NC1CCCCCC1 | 6.3 | 3.0 | 2.9 | 2776 | -1.6 | -10.3 | -6.2
Cc1ccc(C=Nc2ccccc2C(N)=O)cc1 | 4.6 | 6.5 | 0.1 | 10640 | 8.4 | 5.3 | x
CCOc1ccc(CN2CCSCC2)cc1 | 0.3 | 8.4 | 8.5 | 3063 | 15.4 | 4.3 | -14.6
Cc1ccc(S(=O)(=O)NCCC(=O)Nc2cccc(Cl)c2)cc1 | 11.6 | 4.3 | 12.0 | 9074 | 1.3 | 4.2 | -3.7
CN(c1ccccc1)S(=O)(=O)c1ccc(C(=O)Nc2nnc(-c3ccc(F)cc3)o2)cc1 | 99.6* | -5.8 | -6.8 | x | 99.9* | -5.0 | x
C/C(=C/c1ccccc1)C(=O)N1CC(C)OC(C)C1 (stereo unspecified) | 1.2 | 2.7 | 7.8 | 2124 | 1.2 | -0.7 | -11.9
O=C(Cn1cc(C(=S)N2CCOCC2)c2ccccc21)N1CCOCC1 | -1.6 | x | x | 4781 | -2.5 | 7.8 | -8.6
S=C(Nc1ccccc1Cl)N(CCCN1CCOCC1)Cc1ccccn1 | 3.9 | 2.1 | -2.8 | 4586 | 3.8 | 8.1 | -11.5
O=C1NC(=S)NC(=O)C1c1ccccc1 | 5.2 | 8.7 | 3.8 | 3447 | 6.3 | x | -31.5
N#CC1(NC(=O)COc2ccc3ccc(=O)oc3c2)CCCCC1 | 0.7 | -0.2 | -2.5 | x | 1.4 | 12.3 | -0.1
Cc1cc(/C=N/NC(=O)c2cccs2)c(C)n1-c1cnccn1 | x | x | x | 2743 | x | -0.2 | -61.1
O=C(Nc1ccc2c(c1)OCCO2)C1CCN(c2nnnn2-c2ccccc2)CC1 | 3.9 | 5.5 | 5.3 | 16234* | 3.5 | -2.7 | 2.5
COc1cccc(NC(=O)C2(S(=O)(=O)c3ccc(Cl)cc3)CC2)c1 | 0.7 | 2.7 | -2.6 | 4892 | 0.0 | 2.5 | -28.0
O=C(NN1C(=O)C2C3C=CC(C4CC34)C2C1=O)c1ccc(Cl)cc1 (stereo unspecified) | 11.2 | x | x | 4451 | -2.0 | -7.0 | -4.0
C=CCCCCc1nc2ccccc2c(=O)n1N | 4.0 | 0.9 | 1.5 | 8022 | 6.6 | 4.0 | -12.3
COc1cc(NC(=O)c2cccs2)c(C(=O)OCC(=O)c2cc(C)n(-c3ccc(F)cc3)c2C)cc1OC | 1.9 | -0.2 | -0.3 | 2517 | -1.5 | -12.4 | -16.3
CC(=O)c1c(C)[n+]([O-])c2ccc3c(non3O)c12 | 3.2 | 15.3 | 6.3 | 4562 | 3.8 | 5.9 | -13.2
N#Cc1ccc(/C=C\c2nccc3c2[nH]c2ccccc23)cc1 | 6.9 | 8.5 | 2.4 | 5236 | 5.5 | 4.2 | -51.2
COc1ccc(CN(C)C(=O)Cn2ccsc2=N)cc1OC | -0.6 | -0.7 | 4.2 | 3511 | 9.0 | -9.1 | -18.7
CCOC(=O)C1=C(c2ccccc2)NC(=O)NC1c1cc(Br)c(O)c(OC)c1 (stereo unspecified) | 8.1 | 4.5 | 5.9 | 3269 | 22.0 | 2.3 | -7.9

Overlap with the part before: 7 entries, followed by the next part.
SMILES | RN4220 kill | Mtb hypoxia inh | Mtb hypoxia inh growth | Autofluor counter | Sa ugtP lethal | BJeLR lethal | PrP UTR inh
O=C(NN1C(=O)C2C3C=CC(C4CC34)C2C1=O)c1ccc(Cl)cc1 (stereo unspecified) | 11.2 | x | x | 4451 | -2.0 | -7.0 | -4.0
C=CCCCCc1nc2ccccc2c(=O)n1N | 4.0 | 0.9 | 1.5 | 8022 | 6.6 | 4.0 | -12.3
COc1cc(NC(=O)c2cccs2)c(C(=O)OCC(=O)c2cc(C)n(-c3ccc(F)cc3)c2C)cc1OC | 1.9 | -0.2 | -0.3 | 2517 | -1.5 | -12.4 | -16.3
CC(=O)c1c(C)[n+]([O-])c2ccc3c(non3O)c12 | 3.2 | 15.3 | 6.3 | 4562 | 3.8 | 5.9 | -13.2
N#Cc1ccc(/C=C\c2nccc3c2[nH]c2ccccc23)cc1 | 6.9 | 8.5 | 2.4 | 5236 | 5.5 | 4.2 | -51.2
COc1ccc(CN(C)C(=O)Cn2ccsc2=N)cc1OC | -0.6 | -0.7 | 4.2 | 3511 | 9.0 | -9.1 | -18.7
CCOC(=O)C1=C(c2ccccc2)NC(=O)NC1c1cc(Br)c(O)c(OC)c1 (stereo unspecified) | 8.1 | 4.5 | 5.9 | 3269 | 22.0 | 2.3 | -7.9
COc1ccccc1C(=O)NCC(=O)N/N=C/c1ccc([N+](=O)[O-])cc1 | x | x | x | 2102 | x | 7.6 | -11.2
C[C@@H]1Cc2c(O)c(O)cc(O)c2C(=O)O1 | 1.1 | x | x | 4313 | -2.3 | 0.2 | -4.6
Cc1ccccc1C(=O)c1cccn1CC(=O)NCc1ccc(Cl)cc1 | 0.1 | 3.3 | 4.6 | 4283 | 3.8 | 9.8 | -7.5
CCc1cc(=O)oc2cc(C)cc(OC(C)C(=O)NCc3ccccn3)c12 (stereo unspecified) | 1.5 | 2.4 | 5.2 | 6094 | 5.8 | -1.6 | -21.8
COc1cccc(-c2nn(-c3ccccc3)cc2CO)c1 | 2.0 | x | x | 4497 | -3.5 | -11.4 | -63.6
O=C(Cc1ccc(NC(=O)C2CCN(C(=O)C3CCCC3)CC2)cc1)Nc1ccc(C(=O)N2CCOCC2)cc1 | 3.7 | -5.2 | 3.4 | 2532 | -1.6 | x | -13.4
COc1ccc(C(C(=O)NCc2ccccc2)N(C(=O)c2snc(C(N)=O)c2N)c2ccccc2OC)cc1OC (stereo unspecified) | 4.8 | 10.0 | 10.5 | 3793 | 3.0 | 1.2 | -12.6
COc1ccc(NC(=O)C2CCCN(c3c4c(nc5ncnn35)CCC4)C2)cc1 (stereo unspecified) | 4.1 | 8.3 | 11.3 | 23021* | 6.3 | 8.7 | -7.3
O=C(Nc1ccccc1N1CCOCC1)c1ccc2ccccc2c1 | 4.4 | 8.2 | 13.1 | 5467 | 9.3 | -6.6 | -22.6
CCN(CC(=O)Nc1cc(Cl)ccc1C)C(=O)CCc1nc2ccccc2c(=O)[nH]1 | 8.9 | 1.5 | -6.0 | 2998 | 5.2 | x | -3.5
O=C(COC(=O)c1ccccc1NCCO)Nc1ccc(S(=O)(=O)NC2=NCCCCC2)cc1 | 2.5 | 11.8 | 7.6 | 2869 | 8.0 | x | -26.8
Nc1ncnc2c1ncn2[C@@H]1O[C@H](CNS(=O)(=O)CCCCl)[C@@H](O)[C@H]1O | 0.1 | -7.9 | -6.8 | 3887 | 4.1 | x | 26.0
CC(C)[C@H](NC(=O)[C@H](Cc1ccccc1)n1c(=O)[nH]c2ccccc2c1=O)C(=O)N1CCC[C@H]1C(=O)O | -1.7 | x | x | 5557 | -8.5 | 4.7 | -10.5
Cc1ccc(C(=O)Nc2ccc(N3CCOCC3)cc2N2CCOCC2)cc1 | 1.9 | 9.1 | 9.8 | 4058 | 9.2 | 1.6 | -9.6
CC(C)c1ccc(NC(=S)NC2CCCCCC2)cc1 | 6.7 | x | x | 4436 | 3.4 | -2.9 | -73.4
COc1ccc(NC(=O)Nc2ccc3c(c2)C(=O)N([C@H](C)CO)C[C@H](C)[C@@H](CN(C)C(=O)NC(C)C)O3)cc1 | -8.4 | 8.3 | 3.8 | 2848 | 5.0 | x | -22.1
CCNC(=O)c1cc2c(=O)n3cccc(C)c3nc2n(Cc2ccc(C)cc2)c1=N | -3.4 | x | x | 4444 | -3.9 | 1.9 | -6.3
Cc1cc(C)n2nc(SC(C)C(=O)N3CCOCC3)nc2n1 (stereo unspecified) | 2.0 | 3.9 | 3.4 | 5501 | 6.6 | x | -34.8
Cc1ccccc1-c1nn(-c2ccccc2)cc1C(=O)NCC(c1ccco1)N1CCCC1 (stereo unspecified) | 4.6 | 8.1 | 2.9 | x | 5.6 | x | x
CCCc1cc(=O)[nH]c(SCC(=O)Nc2ccc(OCc3ccccc3)cc2)n1 | -1.2 | 9.2 | 7.5 | 8974 | -5.2 | x | -13.4
O=C(c1ccc(Br)s1)N1CCCC1 | 1.0 | 25.8 | 29.2 | 8427 | 5.2 | -13.2 | x
Cc1cc(=O)n2nc(N3CCCC(C(=O)NCc4ccccc4Br)C3)sc2n1 (stereo unspecified) | 3.8 | 4.4 | 0.1 | u | 4.0 | 1.2 | -5.6
O=C(C[n+]1ccccc1)N/N=C/c1ccc(O)cc1 | x | x | x | 3852 | x | 5.4 | -13.5
COc1ccccc1C(c1nnnn1C(C)C)N1CCN(C(=O)c2ccco2)CC1 (stereo unspecified) | 4.5 | 9.2 | 5.6 | 3862 | 16.6 | -10.9 | -12.5
CCC1(C(=O)c2ccc(Cl)cc2)C2c3ccccc3OC(=O)C21C(=O)Nc1ccccc1 (stereo unspecified) | x | x | x | 2111 | x | -10.9 | -26.2
Cc1cc2c(N3CCCCC3C)ncnc2s1 (stereo unspecified) | 0.1 | x | x | 2410 | -0.3 | 4.9 | -46.1
O=C(NCc1ccco1)c1ccc([N+](=O)[O-])cc1Cl | 8.2 | 5.0 | 2.0 | 3704 | -3.4 | -6.4 | -16.6
COc1ccc(/C=C2/SC(=O)N(CC(O)Cn3c4ccccc4c4ccccc43)C2=O)cc1 (stereo unspecified) | 0.4 | -3.5 | 3.3 | 2168 | -13.8 | -4.4 | 2.5
CC1CCCCN1S(=O)(=O)c1ccc(NC(=O)c2cccc(-n3cnnn3)c2)cc1 (stereo unspecified) | 7.1 | 10.9 | 3.7 | 8266 | -12.2 | 4.6 | -24.9
CCC1C(=O)N=C(SCC(=O)NC2CCCCC2)NC1=O (stereo unspecified) | 0.4 | 11.6 | 11.0 | 2574 | 2.7 | 3.8 | -28.7
CC(=O)NCCC(=O)Nc1cc(S(=O)(=O)N2CCCCC2)ccc1Oc1ccccc1 | -1.4 | 3.9 | -0.5 | 4339 | 3.8 | -0.5 | -32.7
CCC1CCc2c(sc(NC(=O)c3cccnc3)c2C(N)=O)C1 (stereo unspecified) | 5.8 | 3.3 | -1.4 | 2439 | -5.4 | 4.8 | -11.8
Cc1c(Br)c(C(F)(F)F)nn1CC(=O)NCc1ccccc1 | 2.4 | 8.8 | 8.8 | 5060 | -2.3 | -1.0 | -10.4
CCOc1ccccc1NC(=O)C(CC(C)C)NC(=O)C1CCCCC1 (stereo unspecified) | -0.6 | 14.7 | 8.7 | 3653 | -19.0 | 1.0 | -10.6
Cc1ccc(CNC(=O)c2csc3c2CCCCC3)cc1 | -0.4 | 8.8 | 4.5 | 8057 | 11.4 | -3.2 | -15.0
COc1ccc(C)cc1S(=O)(=O)N(CC(=O)N1CCOCC1)c1cc(C)cc(C)c1 | 4.6 | 14.6 | 11.3 | 5574 | 1.7 | -2.3 | -11.5
Cc1ccc(OCc2ccc(C(=O)NN)o2)cc1C | 6.8 | 7.4 | 1.6 | 4446 | 4.8 | -1.9 | -22.3
COc1cccc(C(=O)Nc2ccc(C(=O)c3ccccc3)cc2)c1 | 1.6 | -2.9 | 2.5 | 3635 | 2.8 | 3.3 | -16.4
OCC1CCCCN1C(=S)Nc1ccc(Cl)cc1Cl (stereo unspecified) | x | x | x | 4416 | x | 1.8 | -32.0
COc1ccc(-c2cc(C(=O)N3CCN(c4ncccn4)CC3)c3ccccc3n2)cc1OC | 0.6 | -6.0 | 5.3 | u | -4.8 | x | x
O=[N+]([O-])c1cccnc1N1CCC(c2cc(-c3cccc(C(F)(F)F)c3)n[nH]2)CC1 | 7.8 | 7.5 | 5.1 | 2850 | 90.2* | 4.8 | -12.8
